Source: PubChem
Mtb growth = Mycobacterium tuberculosis H37Rv growth inhibition, cell based, confirmatory dose response (AID 1949). 1.6% of 100,000 active. M. tuberculosis H37Rv growth inhibition. most inactive calls were filed without a number and no value below 0 was filed. inhibition, % at 10 µg/mL, or IC50 in µg/mL where a hit was titrated;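 active = confirmed in a dose series; inconclusive = about 50% or more but not retested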;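 note: bacteria grown 7 days with compound before Alamar blue readout; 0% = untreated bacteria and 100% = reference antibiotic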
* = called active by the depositor; i = inactive; ? = inconclusive.

SMILES	Mtb growth
CC(NS(=O)(=O)c1ccc(OCC(=O)NCCc2ccccc2)cc1)c1ccccc1 (stereo not given)	i
CCOC(=O)c1cc(-c2ccccc2)sc1NC(C)=O	6%
CCN(c1cccc(C)c1)S(=O)(=O)c1cc(Cl)c(Cl)cc1Cl	1%
CC(C)C(=O)Nc1ccc(C(=O)Nc2ccccc2C(F)(F)F)cc1	7%
CC1CN(CCCCSc2ccc(Cl)cc2)CC(C)O1 (stereo not given)	i
Cc1cc(Br)ccc1OCC(=O)NCc1ccc2c(c1)OCO2	i
Cc1cc(OCC(=O)NCc2ccccc2)c(C(C)C)cc1Br	1%
O=C(Nc1ccc2oc(=O)ccc2c1)c1cc2ccccc2o1	i
Cc1c(Cl)cccc1NC(=S)NC(=O)COc1ccc(Br)cc1	i
COc1cc(CNc2ccc(N3CCCC3)cc2)ccc1OCc1ccccc1	i
Cc1cc(C)n(C(=O)CSCc2ccccc2)n1	i
O=C1c2ccccc2C(=O)c2c1cc1ccccc1c2O	i
Oc1ccc2ccccc2c1CN1CCN(C(c2ccccc2)c2ccccc2)CC1	41%
Cc1ccc(N(CC(=O)Nc2ccccc2-c2ccccc2)S(C)(=O)=O)c(C)c1	3%
Cn1c(=O)[nH]c(=O)c2c1nc(NCc1ccco1)n2CCCc1ccccc1	2%
COc1cccc(C2CC(=O)C3=C(C2)Nc2ccccc2NC3c2ccc(C)s2)c1 (stereo not given)	i
COc1ccc(CCN2CC(C(=O)O)CC2=O)cc1 (stereo not given)	i
CC(=O)Nc1cc(-c2nc3ccccc3o2)ccc1Cl	i
Cc1c(C(=O)N2CCN(c3ccccc3)CC2)oc2c1C(=O)CC(C)(C)C2	i
Cc1c(Cl)cccc1NC(=O)c1cccc(NC(=O)c2ccccc2)c1	i
CCCNC(=O)c1ccccc1NC(=O)CN(c1ccccc1Cl)S(C)(=O)=O	i
Cc1cccc(C)c1OCc1nnc(SCC(=O)Nc2ccc(Br)c(C)c2C)o1	3%
Cc1cc(Cl)ccc1OCC(=O)N1CCN(S(C)(=O)=O)CC1	i
CC(C)c1ccc(C(=O)NCCNC(=O)c2ccc(C(C)C)cc2)cc1	i
CCOC(=O)c1c(-c2cccc([N+](=O)[O-])c2)csc1NC(=O)c1ccc(OC)cc1	i
O=C(NCc1cccc(I)c1)N1CCOCC1	i
COc1ccc2c(c1OC)C(=O)N(c1ccc(OCc3ccccc3)cc1)C2	i
CC12CC3(C)CC(C)(C1)CC(C(=O)NCC(=O)O)(C2)C3	i
O=C(c1cccs1)N1CCN(c2nnc(-c3ccccc3)c3ccccc23)CC1	3%
CCOC(=O)C1=C(C)Nc2nnnn2C1c1c[nH]c2ccccc12 (stereo not given)	i
CCc1cccc(NC(=O)c2ccc(Cl)cc2Cl)c1	i
O=C1CC(c2ccc([N+](=O)[O-])cc2)c2cc3c(cc2N1)OCCO3 (stereo not given)	i
Cc1cc(O)ccc1Nc1nc(-c2ccccn2)cs1	1.4µg/mL*
COc1ccc(C)cc1Nc1nnc(C)c(=O)[nH]1	i
CC(C)(O)C#Cc1ccccc1C(=O)NC(CSCc1ccccc1)C(=O)O (stereo not given)	i
CCc1ccc(OC(C)c2nnc(SCC(=O)c3ccc(Br)cc3)n2C)cc1 (stereo not given)	i
CCOC(=O)c1c(NC(=O)c2cccc(F)c2)sc(C(=O)Nc2ccccc2OC)c1C	i
Cc1oc(-c2ccc3c(c2)OCCO3)cc1C(=O)NCC(=O)O	i
Cc1cnc(NC(=O)Cc2ccc(Br)cc2)s1	i
O=C(Cc1c(F)cccc1Cl)Nc1nc2c(c(C(F)(F)F)n1)CCCC2	i
COc1cc2c(cc1NC(=O)CCCN1C(=O)CCC1=O)oc1ccccc12	?
C=CCOc1ccc(/C=C2/C(=O)NC(=O)N(c3ccccc3F)C2=O)cc1OCC	i
C=CCn1c(SCC(=O)Nc2ccc(Cl)c(Cl)c2)nc2sc(C)cc2c1=O	i
CN(C)CCNC(=O)c1ccc(S(=O)(=O)N2CCCCC2)cc1	i
CC(=O)N1CCN(c2ccc(F)cc2)CC1	i
CCOc1cc(C=O)cc(I)c1OCC(=O)c1ccccc1	i
Cc1ccnc(NC(=O)CCSc2ccccc2)c1	i
COC(=O)Cc1c(C)c2ccc(OCC(=O)Nc3ccccc3Cl)cc2oc1=O	i
CCn1c(SCC(=O)Nc2cccc(OC)c2)nnc1-c1cccc(C)c1	i
CCC(C)c1ccccc1NC(=S)Nc1ccc(S(N)(=O)=O)cc1 (stereo not given)	i
C=C(C)Cn1c(-c2ccco2)nc2ccccc21	i
CC(NC(=O)C1(C)CC1(Cl)Cl)C1CCCO1 (stereo not given)	i
CCCc1ccc(C2C3=C(Nc4c2c(=O)n(C)c(=O)n4C)c2ccccc2C3=O)cc1 (stereo not given)	i
COc1ccc(S(=O)(=O)NC2CCCCCC2)cc1OC	i
C=CCN(CC=C)C(=S)Nc1sc(-c2ccccc2)cc1C(=O)OCC	1%
Cc1cc(OCCCn2cnc3ccccc3c2=O)cc(C(C)C)c1	4%
COC(=O)c1c(NC(=O)c2ccoc2C)sc2c1CCCC2	i
Cc1cccc(C)c1OCC(=O)Nc1cccc(C#N)c1	0%
COc1ccc(NC(=O)COc2ccccc2-c2ccccc2)cc1	i
CCNS(=O)(=O)c1ccc(OC)c(Cl)c1Cl	i

New compounds follow:
SMILES	Mtb growth
CN(C)S(=O)(=O)c1ccc(NC(=S)NC(=O)c2ccc(Br)o2)cc1	i
COCCn1c(CCc2ccccc2)nnc1SCC(=O)NCc1ccccc1	i
O=C(CCCOc1ccccc1)NC(=S)Nc1ccc(N2CCOCC2)cc1	i
CCOC(=O)Nc1c(C)cc(C)cc1Cl	i
O=C(c1cccs1)N1CCN(c2ccc([N+](=O)[O-])c(N3CCc4ccccc4C3)c2)CC1	38%
O=C(Nc1ccc(OCc2ccccc2)cc1)C1CCCO1 (stereo not given)	i
COCC(=O)NNC(=O)Nc1cc(Cl)ccc1OC	i
COc1ccc(NC(=S)NCc2cccs2)cc1OC	i
COc1ccccc1NC(=O)CC12CC3CC(CC(C3)C1)C2	i
COc1ccccc1N1CCN(C(=O)c2cccc(C)c2[N+](=O)[O-])CC1	i
Clc1ccc(-n2ncc3c(N4CCCC4)ncnc32)cc1	i
CCOC(=O)C1CCN(C(=O)CN(c2ccc(C)cc2)S(=O)(=O)c2ccc(SC)cc2)CC1	i
O=C(c1ccc(Br)o1)N1CCN(c2cccc(Cl)c2)CC1	i
COc1ccc(NC(=O)Nc2ccc3c(c2)nnn3C)cc1	i
CCOC(=O)c1c(NC(=O)C2CCCCC2C(=O)O)sc(C)c1C (stereo not given)	i
COCCn1c(C)cc(/C=C(/C#N)c2ccc(Cl)cc2)c1C	33%
CCCS(=O)(=O)N1CCN(Cc2cccs2)CC1	1%
Cc1ccc(OCCCC(=O)Nc2ccc(Cl)cc2)cc1	i
CCN1C(=O)C(CC(=O)Nc2ccccc2)N(NC(=O)c2ccccc2)C1=S (stereo not given)	i
CCC(=O)Oc1ccc2ccccc2c1CNC(=O)c1ccccc1	8%
CC(=O)Oc1ccc(N(C(C)=O)S(=O)(=O)c2ccc(F)cc2)cc1	i
COc1ccc(CC(=O)NC(C)c2nnc(SCc3ccc(Cl)c(Cl)c3)n2C)cc1 (stereo not given)	i
N#CCc1ccc(NC(=O)c2ccc(CN3CCOCC3)cc2)cc1	i
O=C(c1ccco1)c1cn(CC(=O)N2CCc3ccccc3C2)c2ccccc12	i
O=C(Nc1ccc(Br)cc1)C(F)(F)F	i
CC1CCc2c(sc3[nH]c(=S)n(Cc4ccccc4)c(=O)c23)C1 (stereo not given)	i
NC(=O)CSc1nnc(-c2ccncc2)n1Cc1ccccc1	i
O=C(O)CSC1CC(=O)N(c2ccc(F)cc2)C1=O (stereo not given)	i
COc1ccc(C(=O)Nc2ccc(Cl)cc2C(=O)Nc2ccncc2)cc1	i
COc1ccc(Nc2ncnc3ccc(I)cc23)cc1OC	2%

4 of the compounds above, field by field:
> COc1ccc(CC(=O)NC(C)c2nnc(SCc3ccc(Cl)c(Cl)c3)n2C)cc1 (stereo not given)
  Mtb growth: i
> N#CCc1ccc(NC(=O)c2ccc(CN3CCOCC3)cc2)cc1
  Mtb growth: i
> O=C(c1ccco1)c1cn(CC(=O)N2CCc3ccccc3C2)c2ccccc12
  Mtb growth: i
> O=C(Nc1ccc(Br)cc1)C(F)(F)F
  Mtb growth: i

(further entries)
SMILES	Mtb growth
CN1CCN(C(=O)c2ccc(NS(C)(=O)=O)cc2)CC1	i
Cc1ccc(NC(=O)c2cc(Cl)ccc2Cl)nc1	i
O=C(Cc1ccccc1)NNc1ccc2ccccc2c1	3%
COc1ccc(Cl)cc1C(=O)NC(=S)Nc1ccc(C(=O)O)c(Cl)c1	i
CN1CCN(c2nc3c([nH]2)c(=N)ncn3CC(O)CO)CC1 (stereo not given)	i
CCC(=O)Nc1ccc(-c2cc3ccccc3oc2=O)c(Cl)c1	27%
COc1ccc(CNCCC2(c3ccc(C)cc3)CCOC(C)(C)C2)cc1OC (stereo not given)	i
Cc1cc(C)n(CC(=O)n2c(C)c(C)c3ccccc32)n1	i
COc1ccc(-c2c3c(=O)n(C)c(=O)n(C)c3c3cnc4ccccc4n23)cc1	1%
CC(C)OCCCNC(=O)c1ccccc1Oc1ccccc1	i
COc1ccc(N2CCN(/C(N)=N\c3nc(C)cc(C)n3)CC2)cc1	1%
Cc1ccc(SCC(=O)Nc2nnc(-c3cccs3)s2)cc1	i
Cc1c(NC(=O)CCCN2C(=O)c3cccc4cccc(c34)C2=O)c(=O)n(-c2ccccc2)n1C	i
CCCC(=O)NCc1cc(-c2nn(C)c(=O)c3ccccc23)ccc1OC	i
Cc1c(NC(=S)Nc2ccc(S(=O)(=O)Nc3ncccn3)cc2)c(=O)n(-c2ccccc2)n1C	i
CCc1cccc(NC(=O)CCSCCC(=O)Nc2cccc(CC)c2)c1	i
Cc1ccc(NC(=O)C2CCN(C(=O)c3ccccc3)CC2)cc1C	i
CC(Oc1ccc(Cl)cc1Cl)C(=O)Nc1ccc2[nH]c(=O)[nH]c2c1 (stereo not given)	i
CC1(C)CC(=O)C2=C(C1)NC(Nc1nc3ccccc3o1)=NC2c1cccc(Br)c1 (stereo not given)	3.2µg/mL*
CCC(C)c1ccc(OCC(=O)Nc2ccccc2N2CCOCC2)cc1 (stereo not given)	21%
CN(C)S(=O)(=O)N1CCN(C(=O)c2ccco2)CC1	i
COC(=O)c1cn(CC(=O)Nc2ccccc2C(F)(F)F)c2ccccc12	9%
CN1C(=O)c2ccc(C(=O)Nc3cc(Cl)ccc3O)cc2C1=O	i
CC(Oc1ccc(Cl)cc1Cl)C(=O)Nc1ccc2oc(=O)ccc2c1 (stereo not given)	i
CCN(CC)Cc1cc(C(=O)O)c(-c2ccccc2)o1	i
CCc1ccc(OCCCC(=O)O)c(Br)c1	i
COc1ccc2oc(-c3ccc(C)c(N)c3)nc2c1	40%
CS(=O)(=O)N(CC(=O)Nc1ccc(F)cc1F)c1cccc2ccccc12	i
c1ccc(-c2nnc(Cn3c4ccccc4c4nc5ccccc5nc43)o2)cc1	i
Cc1nnc2c(NCCc3ccccc3)nc3ccccc3n12	4%
NC(=O)c1c(NC(=O)COc2ccc(Cl)cc2)sc2c1CCC2	i
O=C(Nc1ccc(S(=O)(=O)NCc2ccccc2)cc1)c1ccco1	i
O=C(CSc1nc2ccccc2c(=O)n1-c1ccc(Cl)cc1)c1cccs1	i
O=C(CNS(=O)(=O)c1cccc(C(F)(F)F)c1)N1CCN(c2ccc(Cl)c(Cl)c2)CC1	4.8µg/mL*
CCCNC(=O)COc1ccc(Br)cc1C	3%
CS(=O)(=O)N(CC(=O)Nc1ccccc1C(F)(F)F)c1ccc(Cl)c(C(F)(F)F)c1	2%
Cc1nc(-c2ccccc2)nc2[nH]c(C(C)C)cc(=O)c12	i
Cc1ccc(N2C(=O)CC(N(C(=O)c3cccs3)c3ccc(C)cc3)C2=O)cc1 (stereo not given)	i
COc1cc(-c2nnn(CC(=O)O)n2)cc(OC)c1OC	i
COc1ccc(NC(=O)c2ccc(C)c(NC(C)=O)c2)cc1	i
Cc1cc(=O)oc2c(C)c(OCc3cccc(Cl)c3)ccc12	i
Cc1cc(C)cc(NC(=O)c2ccc(COCC(F)(F)F)cc2)c1	1%
Cc1c(-c2ccccc2)cn2c1-c1ccc(C)n1CC2	6%
CS(=O)(=O)N1CCC(C(=O)N(Cc2ccccc2)Cc2ccccc2)CC1	i
Cc1ccc(S(=O)(=O)Cc2ccc(Cl)cc2Cl)cc1	i

Sorted by count of non-hydrogen atoms (ascending): 3 of the compounds above
SMILES	Mtb growth
Cc1nc(-c2ccccc2)nc2[nH]c(C(C)C)cc(=O)c12	i
CS(=O)(=O)N1CCC(C(=O)N(Cc2ccccc2)Cc2ccccc2)CC1	i
Cc1ccc(N2C(=O)CC(N(C(=O)c3cccs3)c3ccc(C)cc3)C2=O)cc1 (stereo not given)	i

Other entries:
SMILES	Mtb growth
Cc1onc(-c2ccccc2)c1C(=O)n1nnc2ccccc21	2%
CCOc1ccc(CN2CCC(C(=O)N3CCN(Cc4ccccc4)CC3)CC2)cc1	i
CN1CCC(NC(=O)c2ccccc2)CC1	i
CCOC(=O)c1cccc(NC(=O)CCCOc2cc(C)ccc2C)c1	i
CCCCNCCOCCOc1ccc(C(C)C)c(C)c1	i
Cc1ccc(-c2csc(NC(=S)NC(=O)c3cccc(I)c3)n2)cc1	i

A portion of the library (hit frequency here may not be typical).
